HNF4A DNA FP – change in binding of human HNF4A to DNA, primary screen, biochemical, fluorescence polarization, FITC-DNA; activity change, % at 10 µM; 1 h; actives 0.3% (n = 360,000); Hepatocyte nuclear factor 4-alpha (Homo sapiens), P41235; in the data active = activity change above about 30%, passing the limit was not always enough;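 note: controls were the assay level and a saturating level of protein; the project sought stronger binding though the title names inhibitors; some compounds called inactive have numbers as strong as hits; positive values seem to mean higher polarization but the record does not say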
FGF22 binding – binders of human FGF22 protein, primary screen, FGF22 synaptogenesis inhibitor project, biophysical, thermal shift, single point. Fibroblast growth factor 22 (Homo sapiens), Q9HCT0. recombinant FGF22 thermal shift, SYPRO orange fluorescence; percent of sucrose octasulfate shift, DMSO zero. calls only at 9.99 µM. actives 1.5% (n = 340,000). AID 651658, 2012;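 active = melting point raised past a set limit in the mean and every replicate; three in four hits are not shown here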
Target sequence (Q9HCT0 whole entry, looked up): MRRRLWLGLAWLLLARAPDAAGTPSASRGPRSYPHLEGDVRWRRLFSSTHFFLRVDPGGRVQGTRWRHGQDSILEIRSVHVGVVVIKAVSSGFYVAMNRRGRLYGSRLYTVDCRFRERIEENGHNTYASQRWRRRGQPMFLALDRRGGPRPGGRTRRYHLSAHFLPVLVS
E coli growth – E. coli growth inhibition, primary screen, OD600 | Escherichia coli growth, 23 h; stronger effect = lower value | OD600 absorbance (test concentration not listed) | actives 0.21% (n = 330,000);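 active = OD600 absorbance below the run mean of sample wells minus 3.6 SD, in any replicate, cut at about 0.56 in these data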;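 note: stock transfer was 300 nL into about 60 µL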
Beta2AR agonist – beta2AR agonists driving receptor internalization, primary screen, cell-based, FAP fluorogen, flow cytometry. Beta-2 adrenergic receptor (Homo sapiens), P07550. Am2.2-beta2AR cells; reference of the scale not given here. response, % (concentration not given with the values). actives 0.43% (n = 340,000). AID 504454, 2011;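 active = response above a set limit, near 3 SD of response in nonfluorescent compounds, cut at about 42% in these data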;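 note: stock transfer was 100 nL into about 11 µL; a reference agonist was the positive control; negative values mostly stem from fluorescent compounds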
LANA-H2B inh – blockers of LANA interaction with H2A/H2B – biochemical, FP readout, HTS, primary screen. cell-free LANA-H2A/H2B peptide, fluorescence polarization. inhibition, % (no concentration beside the values). actives 0.6% (n = 320,000); in the data active = inhibition mostly above about 10%, no sharp cut-off; inactive = mostly below about 6.7%;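 note: stock transfer was 7.5 nL into about 10 µL; 0% = median of vehicle wells and 100% = median of positive control wells; one replicate is shown; the record names a cut of 25% in any replicate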
ALR inh – inhibitors of human ALR sulfhydryl oxidase, primary screen, biochemical, H2O2 detection, HRP-luminol luminescence, single point; FAD-linked sulfhydryl oxidase ALR (Homo sapiens), P55789; inhibition, % (test concentration not listed); AID 485317, 2010; purified ALR, DTT oxidation; actives 3.8% (n = 290,000);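 active = mean and each replicate at 75% or more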;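 note: stock transfer was 7.5 nL into about 7.5 µL; 0% = neutral wells and 100% = wells with inactivated enzyme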
Target sequence (P55789 whole entry, looked up): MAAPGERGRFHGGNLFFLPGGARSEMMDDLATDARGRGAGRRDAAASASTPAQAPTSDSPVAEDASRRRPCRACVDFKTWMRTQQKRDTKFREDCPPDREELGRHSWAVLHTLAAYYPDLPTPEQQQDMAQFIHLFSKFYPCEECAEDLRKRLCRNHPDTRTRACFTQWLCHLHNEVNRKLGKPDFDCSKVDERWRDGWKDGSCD
UCH37 DUB inh – inhibitors of human UCH37 deubiquitinase, primary screen, biochemical, Ub-AMC cleavage, fluorescence; Ubiquitin carboxyl-terminal hydrolase isozyme L5 (Homo sapiens), Q9Y5K5; purified proteasome/UCH37; inhibition, % (test concentration not listed); actives 0.33% (n = 330,000);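 active = mean of two replicates above 20%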;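 note: 0% = compound-free wells with enzyme and 100% = wells lacking proteasome; stock transfer was 100 nL into about 20 µL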
Target sequence (Q9Y5K5 whole entry, looked up): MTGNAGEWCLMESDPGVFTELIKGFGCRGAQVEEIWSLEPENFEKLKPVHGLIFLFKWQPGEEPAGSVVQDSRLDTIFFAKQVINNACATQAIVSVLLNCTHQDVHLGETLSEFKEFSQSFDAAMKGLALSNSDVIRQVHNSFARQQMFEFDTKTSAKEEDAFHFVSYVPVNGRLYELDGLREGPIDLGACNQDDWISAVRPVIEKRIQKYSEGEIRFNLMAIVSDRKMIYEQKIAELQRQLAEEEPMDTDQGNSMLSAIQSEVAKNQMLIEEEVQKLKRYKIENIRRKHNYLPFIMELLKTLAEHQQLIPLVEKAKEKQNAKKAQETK
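assay system = human UCH37 enzyme supplied as purified proteasome complex | amount = proteasome at 0.15 nM in the dispensed enzyme solution | schedule = 30 min compound-proteasome preincubation then 25 min substrate reaction, room temperature | measured by = fluorescence, ex 355 nm, em 460 nm | benchmarks = no-proteasome wells (full inhibition) and compound-free wells (no inhibition)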
* = called active by the depositor; i = inactive; · = not tested or not shown. An excerpt; count on the stated rates, not on these rows.

SMILES | HNF4A DNA FP | FGF22 binding | E coli growth | Beta2AR agonist | LANA-H2B inh | ALR inh | UCH37 DUB inh
CCOC(=O)CC1(c2ccc(OC)c(OC)c2)C(=O)c2ccccc2C1=O | 1.5 | i | 0.68 | -2 | 0.8 | -5 | 3.0
Cc1cc(Cl)ccc1OCC(=O)N/N=C1\CCCc2ccccc21 | 3.8 | · | · | -6 | 3.7 | -7 | ·
Cc1cc(Br)ccc1OCCCCNCCO | 3.3 | · | 0.64 | 5 | 6.6 | -1 | 2.5
O=C(NCC1CCCO1)C1CCCN1C(=O)Nc1ccc(Cl)cc1 (stereo unspecified) | -1.7 | i | 0.67 | 3 | 2.6 | -9 | -2.6
Cc1ccc(OCC(=O)N(Cc2cccs2)C2CCS(=O)(=O)C2)cc1C (stereo unspecified) | 2.1 | i | 0.68 | -5 | -0.5 | -5 | 6.4
CC(=O)c1ccc(NC(=S)NC(C)CCc2ccccc2)cc1 (stereo unspecified) | 2.8 | i | 0.66 | -5 | 7.1 | -13 | 1.1
Nc1c(C(=O)c2ccc(Br)s2)oc2ccccc12 | -2.6 | · | 0.73 | 2 | 1.4 | · | -1.9
Cc1cccc(-c2c3c(=O)n(C)c(=O)n(C)c3c3nnc4ccccc4n23)c1 | 50* | · | 0.7 | 2 | · | · | 3.4
CC1(C)CC(=O)c2cnc(NC(=O)Cc3ccc(Cl)cc3)nc2C1 | 2.4 | · | 0.75 | 2 | 1.9 | -3 | 5.2
Cc1ccc(NC(=O)CN(C)C(=O)Cc2c(Cl)cccc2Cl)cc1 | 3.2 | i | 0.7 | -5 | -0.1 | · | -0.1

Five compounds out of the list, arranged by number of heavy atoms, low to high:
SMILES | HNF4A DNA FP | FGF22 binding | E coli growth | Beta2AR agonist | LANA-H2B inh | ALR inh | UCH37 DUB inh
Cc1cc(Br)ccc1OCCCCNCCO | 3.3 | · | 0.64 | 5 | 6.6 | -1 | 2.5
CC(=O)c1ccc(NC(=S)NC(C)CCc2ccccc2)cc1 (stereo unspecified) | 2.8 | i | 0.66 | -5 | 7.1 | -13 | 1.1
Cc1cc(Cl)ccc1OCC(=O)N/N=C1\CCCc2ccccc21 | 3.8 | · | · | -6 | 3.7 | -7 | ·
Cc1ccc(OCC(=O)N(Cc2cccs2)C2CCS(=O)(=O)C2)cc1C (stereo unspecified) | 2.1 | i | 0.68 | -5 | -0.5 | -5 | 6.4
CCOC(=O)CC1(c2ccc(OC)c(OC)c2)C(=O)c2ccccc2C1=O | 1.5 | i | 0.68 | -2 | 0.8 | -5 | 3.0

Additional entries.
SMILES | HNF4A DNA FP | FGF22 binding | E coli growth | Beta2AR agonist | LANA-H2B inh | ALR inh | UCH37 DUB inh
COc1ccc2oc(C(F)(F)C(F)(F)F)cc(=O)c2c1 | 1.5 | · | 0.69 | 0 | -1.7 | -9 | -135
COC(=O)c1ccc(NC(=O)Nc2cccc(F)c2)cc1 | 11 | i | 0.6 | 0 | 4.4 | -3 | -1.4
Cc1ccc(NC(=O)C(=Cc2ccc(C(=O)O)cc2)C(=O)Nc2ccc(C)cc2C)c(C)c1 | 2.0 | · | 0.68 | 15 | -0.5 | · | 5.0
Fc1cccc(/C=N/NC(=S)Nc2ccccc2Cl)c1 | 0.6 | · | · | 12 | -0.6 | -17 | ·
O=C(COc1coc(CN2CCN(c3ccccc3)CC2)cc1=O)Nc1ccccc1F | -0.1 | i | 0.66 | 7 | · | · | 1.7
CCC(c1nc2ccccc2c(=O)n1CCCn1ccnc1)N1C(=O)c2ccccc2C1=O (stereo unspecified) | 0.0 | · | 0.69 | -2 | -1.3 | -18 | -1.0
Cc1ccc(C(=O)Nc2ccc3c(c2)OCO3)cc1S(=O)(=O)N1CCCC1 | -0.4 | · | 0.77 | 10 | -0.7 | -9 | 0.4
CCOC(=O)C1CCCN(C(=O)C(=O)Nc2ccc3nc4n(c(=O)c3c2)CCCCC4)C1 (stereo unspecified) | 3.1 | i | 0.71 | 20 | 3.2 | -16 | 3.3
CCC(C)c1ccccc1NC(=O)C(C)OC(=O)c1ccco1 (stereo unspecified) | 0.9 | i | 0.71 | -6 | -0.9 | -3 | 2.8
O=C(COC(=O)c1c(F)cccc1Cl)NC(=O)Nc1ccc2c(c1)OCCO2 | -0.4 | i | 0.68 | -4 | -2.0 | · | 2.5
CCN(CC(=O)NC(C)(C)C)C(=O)C(c1ccccc1)c1ccccc1 | -1.2 | i | 0.65 | -1 | -1.3 | · | 0.2
Cc1ccc(/C=C2\S/C(=N/S(=O)(=O)c3cccs3)NC2=O)cc1 | -9.4 | i | 0.66 | -9 | -2.8 | 47 | 11
CNc1nnc(-c2ccc(C)cc2)c2ccccc12 | -0.6 | i | 0.66 | -13 | -6.9 | 2 | 2.0
CC1(C)CC(=O)C(CS(=O)(=O)c2ccccc2)=C(Cl)C1 | -2.6 | i | 0.76 | 0 | -5.2 | -7 | 3.9
COC(=O)c1ccc(SCC(=O)NC2CCCC2)c([N+](=O)[O-])c1 | 2.5 | · | 0.69 | -14 | 1.0 | -3 | 3.7
O=C(Nc1nc(-c2cccs2)cs1)c1ccc(S(=O)(=O)N2CCCCC2)cc1 | -2.9 | i | 0.74 | 4 | 0.3 | · | -8.4
CCCN(CCC)C1=CC(=[N+]2CCCC2)CC(C)(C)C1 | 0.5 | i | 0.69 | -3 | 2.0 | -4 | 8.7
NC1=C(c2ccc([N+](=O)[O-])cc2)C(=O)CO1 | 4.1 | i | 0.68 | 2 | -6.9 | · | 7.7
CC(C)Oc1ccc(C(=O)NC(Cc2c[nH]c3ccccc23)C(=O)NN)cc1 (stereo unspecified) | -2.6 | i | 0.65 | 3 | 0.9 | -4 | 1.8
COC(=O)c1c(NC(=O)/C=C/C(=O)O)sc(C)c1-c1ccc(C)cc1 | 0.0 | i | 0.62 | 5 | -0.1 | 98* | 7.6
COC(=O)c1ccc(-c2ccc(/C=N/N3C(=O)C4C5C=CC(CC5)C4C3=O)o2)cc1 (stereo unspecified) | -1.9 | i | · | 8 | -2.2 | · | ·
O=C(/C=C/c1ccc(F)cc1)NC(Cc1c[nH]c2ccccc12)C(=O)O (stereo unspecified) | -4.1 | i | · | 2 | -0.5 | -2 | 2.5
COc1ccccc1N1CCN(Cc2ccc(-c3ccccc3[N+](=O)[O-])o2)CC1 | -1.1 | i | 0.64 | 6 | 0.3 | 2 | 1.0
CCn1c(=O)c2sccc2n2c(CCCC(=O)N3CCN(c4ccccn4)CC3)nnc12 | 4.4 | i | 0.6 | 15 | 5.7 | 1 | -0.9
CC1CCN(S(=O)(=O)c2ccc3nc(N4CCN(c5ccccc5)CC4)ccc3c2)CC1 | · | i | 0.73 | · | 2.7 | 0 | -60
CCN(CC)S(=O)(=O)c1ccc(Cl)c(NC(=O)COc2ccccc2[N+](=O)[O-])c1 | -2.6 | i | 0.69 | -5 | 3.6 | -3 | 3.8
COc1ccccc1N(CC(=O)N/N=C/c1ccc(OCC(=O)NCc2ccco2)cc1)S(=O)(=O)c1ccc(C)cc1 | -2.2 | · | · | 9 | 0.5 | · | ·
Cc1cc(C)n2nc(C(=O)OCC(=O)Nc3ccc4c(c3)OCO4)nc2n1 | 3.9 | · | 0.73 | 2 | 0.6 | -8 | 0.9
S=C(c1c[nH]c2ccc(Br)cc12)N1CCOCC1 | -4.8 | i | 0.67 | -2 | -1.9 | 99* | 1.2
COc1cccc(Cn2c(-c3cccs3)noc2=O)c1 | -1.6 | · | 0.76 | 1 | -5.8 | 2 | 5.3
COc1ccccc1-c1ccc(/C=C2/C=C(C)OC2=O)o1 | 8.2 | · | 0.67 | 14 | 6.4 | 11 | -41
Cc1cccc(N/C(N)=N/c2nc3c(c(=O)[nH]2)CCCC3)c1 | 4.8 | · | 0.68 | 2 | -5.3 | 19 | 0.4
COc1ccccc1NC(=O)N(c1c(N)n(Cc2ccccc2)c(=O)[nH]c1=O)C1CCCC1 | 2.4 | · | 0.71 | -1 | -1.6 | -7 | 3.0
O=C(COC(=O)c1cccc(F)c1)NCCC1=CCCCC1 | -1.9 | i | 0.7 | -3 | 4.1 | 1 | 1.4
O=C(c1ccc(=O)oc1)N1CCC(C(O)(c2ccccc2)c2ccccc2)CC1 | 1.6 | i | 0.67 | -1 | 0.6 | · | -7.4
Cn1c(/N=C/c2c[nH]c3ccccc23)nc2ccccc21 | -18 | · | · | -5 | -1.0 | -1 | ·
Cn1c(N)c(C(=O)COC(=O)Cc2cccs2)c(=O)n(C)c1=O | 0.3 | i | 0.64 | 0 | -0.6 | -1 | 0.8
Cc1onc(-c2ccccc2)c1C(=O)Nc1sc2c(c1C#N)CCC2 | 13 | · | 0.73 | -3 | · | · | -1.7
Cc1ccc(C)c(-n2nnnc2SCC(=O)Nc2cccc(-c3nnc4n3CCCCC4)c2)c1 | -1.0 | · | 0.7 | -16 | 3.5 | -1 | -1.7
Cc1ccc(-n2cc(-c3ccccc3)[nH]c2=O)cc1F | 5.8 | · | 0.76 | 3 | 7.2 | -3 | -1.6
O=C(CSc1nnc(NC(=O)Cc2ccccc2)s1)NCc1ccco1 | -6.0 | i | 0.72 | 1 | 2.1 | -7 | -0.1
CCCCn1c(=O)c2ccccc2c2ccccc2c1=O | -5.5 | · | 0.68 | 12 | -6.7 | -4 | 3.5
COc1ccc(NC(=O)/C=N/O)cc1 | 6.9 | i | · | 6 | 2.6 | -6 | ·
CC(OC(=O)CSc1ccc([N+](=O)[O-])cc1)C(=O)NCc1ccccc1 (stereo unspecified) | -4.2 | · | 0.68 | 1 | -3.7 | 46 | 7.6
CCC(=O)Nc1cccc(C2=NOC3(C2)C[C@@H](C(N)=O)N(C(=O)C(c2ccccc2)c2ccccc2)C3)c1 (stereo partly specified) | -3.0 | i | · | -1 | 2.8 | 1 | 0.5
Cc1ccc(NC(=O)CCn2c(=O)[nH]c3ccsc3c2=O)cc1C | 0.2 | · | 0.67 | -11 | -1.3 | 1 | 2.8
N#Cc1ccccc1OCC(=O)NC(=O)NC1CCS(=O)(=O)C1 (stereo unspecified) | 1.8 | i | 0.7 | 4 | -4.5 | -2 | -1.3
O=C(/C=C/c1cccnc1)c1ccc(O)cc1 | -0.8 | i | 0.66 | 2 | -2.9 | 9 | 9.2
COC(=O)c1ccc(C(=O)OC)c(NS(C)(=O)=O)c1 | 2.8 | · | 0.75 | 0 | 0.2 | 0 | -11
CC(=O)Nc1ccccc1OCC(=O)NC1CCCCC1C (stereo unspecified) | 0.8 | i | 0.68 | -3 | 7.8 | 2 | 3.8
(list continues)
SMILES | HNF4A DNA FP | FGF22 binding | E coli growth | Beta2AR agonist | LANA-H2B inh | ALR inh | UCH37 DUB inh
CC(C)(C)S(=O)(=O)c1cnc(-c2ccc(Cl)cc2)nc1N | -0.6 | i | 0.69 | 5 | -2.4 | -5 | 2.7
COCCn1c(=O)[nH]c2cc(C(=O)NC(C)C)ccc2c1=O | 2.8 | · | 0.69 | -14 | 4.2 | -11 | -17
Nc1cccc(C(=O)Nc2ccc3nc(-c4cccnc4)[nH]c3c2)c1 | -5.2 | i | 0.72 | 11 | -4.8 | 99* | 2.5
CCS(=O)(=O)N1CCN(Cc2ccc([N+](=O)[O-])cc2)CC1 | 3.4 | · | 0.64 | 7 | 0.5 | 0 | 0.8
CCOC(=O)c1c(C)[nH]c(/C(C)=N/O)c1C | -0.5 | · | · | 8 | -0.3 | 30 | ·
O=C(CSc1nnc(Cc2cccs2)n1CCc1ccccc1)N1CCCc2ccccc21 | 4.5 | · | 0.71 | 3 | 3.5 | 1 | 2.3
Cc1cc(C)c(S(=O)(=O)c2ccc(Cl)cc2)c(=O)[nH]1 | 4.2 | i | 0.66 | -6 | 1.9 | 1 | -1.4
Cc1cc(C)n(CC(O)Cn2ccc3ccccc32)n1 (stereo unspecified) | 2.4 | i | 0.69 | -2 | -5.0 | -16 | 3.0
